AmpC inh no det: blocks E. coli AmpC beta-lactamase in absence of detergent; P00811; AmpC nitrocefin hydrolysis, absorbance 480 nm, no detergent; potencies from a single point are estimates; 71,000 tested, 1.8% active; Potency, µM (top dose mostly 28.7 µM), without a hit: top-dose activity change, negative = inhibition; AID 585; active = falling curve, for most hits resting on a single point; inconclusive = weak or doubtful change; inactive = flat or rising curve; also: % of control where 0% means no effect; about half of the hits show no inhibition at the top dose; a quarter of the inactives give rising signals
Target sequence (P00811 whole entry, looked up): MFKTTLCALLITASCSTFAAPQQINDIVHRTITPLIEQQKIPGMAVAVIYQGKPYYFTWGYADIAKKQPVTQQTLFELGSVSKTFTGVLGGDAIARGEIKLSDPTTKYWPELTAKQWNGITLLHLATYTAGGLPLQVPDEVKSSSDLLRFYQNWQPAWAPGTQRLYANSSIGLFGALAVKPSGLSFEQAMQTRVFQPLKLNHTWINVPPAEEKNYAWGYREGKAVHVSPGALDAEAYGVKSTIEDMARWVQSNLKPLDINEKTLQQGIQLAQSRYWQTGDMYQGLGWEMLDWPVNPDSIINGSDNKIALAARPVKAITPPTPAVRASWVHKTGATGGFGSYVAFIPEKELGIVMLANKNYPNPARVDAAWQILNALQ
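AmpC, 20 mM phosphate pH 7.0; 15 min cpd preinc, RT; start with nitrocefin (800 uM stock); A480 kinetic read, 20 s intervals, 4 min. No-enzyme wells = negative control.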
Active calls of the source: *; [ ] = dose if it differs, or a comment. Potency is read from the fitted curve at half-maximal effect.

`Cn1c(=O)c2c(nc(SCC(=O)NCc3ccc4c(c3)OCO4)n2Cc2ccccc2)n(C)c1=O` gave AmpC inh no det 37%.
For O=C(CN1CCN(S(=O)(=O)c2ccc(F)cc2)CC1)Nc1ccc(Cl)c(C(F)(F)F)c1 the results were AmpC inh no det 31%.
Screening COc1ccc(C(=O)CSc2nnc(C3CCCCC3)n2N)c(OC)c1 returned AmpC inh no det 40%.
COC(=O)[C@H](CCSC)NC(=O)N1CCN(Cc2ccccc2)CC1 was read as AmpC inh no det 18%.
COc1ccc(-n2cnnc2SCCC#N)cc1 was read as AmpC inh no det -7%.
Cc1cc2cc(CN(Cc3ccco3)C(=O)C3CCCCC3)c(=O)[nH]c2cc1C was read as AmpC inh no det 30%.
O=c1c(-c2cc(F)cc(F)c2)nc2cncnc2n1Cc1ccc(F)cc1 was read as AmpC inh no det 18%.
Screening Cc1ccc(S(=O)(=O)N(c2cccc(C(F)(F)F)c2)C2C=CS(=O)(=O)C2)cc1 (stereo unspecified) returned AmpC inh no det 53%.
Screening COC(=O)CC1Oc2ccccc2N(Cc2ccc(C)cc2)C1=O (stereo unspecified) returned AmpC inh no det 19%.
`COC(=O)CNC(=O)C1(CC(C)C)C=CCN1C(=O)c1ccccc1` (stereo unspecified) gave AmpC inh no det 21%.
Screening CCC(C)NS(=O)(=O)c1ccc(OCC(=O)NCc2ccco2)cc1 (stereo unspecified) returned AmpC inh no det 14%.
For Cc1cc(Cc2cc(Cc3cc(C)cc(C(C)(C)C)c3O)c(C)cc2C)c(O)c(C(C)(C)C)c1 the results were AmpC inh no det -21%[5.75 µM].
`[N-]=[N+]=NCC(=O)c1c[nH]c(=O)[nH]c1=O` gave AmpC inh no det 5%[5.75 µM].
`Cc1nn(Cc2ccccc2Cl)c(Cl)c1C(=O)OCC(=O)NCc1ccco1` gave AmpC inh no det 13%.
NCCc1ccn[nH]1 was read as AmpC inh no det -9%[12.8 µM].
Screening CCc1ccc(-n2c(O)cnc2Nc2nc(C)cc(C)n2)cc1 returned AmpC inh no det 4µM*[single pt active].
CCOC(=O)N1CCN(C(=O)Cc2ccsc2)CC1 was read as AmpC inh no det -4%.
Screening COCCCn1c(SCC(=O)N2CC(=O)Nc3ccccc32)nnc1-c1ccoc1C returned AmpC inh no det 7%.
For COc1cc(NC(=O)c2ccccc2)c(OC)cc1NC(=O)CN1CCOCC1 the results were AmpC inh no det 99%.
O=C(COc1ccc(S(=O)(=O)N2CCCC2)cc1Cl)NC1CC1 was read as AmpC inh no det 17%.
Cc1cc(=O)n2nc(N3CCC(C(=O)NC4CCCc5ccccc54)CC3)sc2n1 (stereo unspecified) was read as AmpC inh no det 65%.
For CCC(C)NC(=O)C1CC(c2ccc(OC)cc2)=NO1 (stereo unspecified) the results were AmpC inh no det 7%.
Screening CCOc1ccc(C(C)C)cc1S(=O)(=O)n1nc(C)cc1C returned AmpC inh no det 36%.
CS(=O)c1nc(-c2ccc(Br)cc2)cc(-c2ccccc2)c1C#N (stereo unspecified) was read as AmpC inh no det 37%.

Among those listed so far, these have a halogen:
For O=C(CN1CCN(S(=O)(=O)c2ccc(F)cc2)CC1)Nc1ccc(Cl)c(C(F)(F)F)c1 the results were AmpC inh no det 31%.
O=c1c(-c2cc(F)cc(F)c2)nc2cncnc2n1Cc1ccc(F)cc1 was read as AmpC inh no det 18%.
Screening Cc1ccc(S(=O)(=O)N(c2cccc(C(F)(F)F)c2)C2C=CS(=O)(=O)C2)cc1 (stereo unspecified) returned AmpC inh no det 53%.
`Cc1nn(Cc2ccccc2Cl)c(Cl)c1C(=O)OCC(=O)NCc1ccco1` gave AmpC inh no det 13%.
O=C(COc1ccc(S(=O)(=O)N2CCCC2)cc1Cl)NC1CC1 was read as AmpC inh no det 17%.
CS(=O)c1nc(-c2ccc(Br)cc2)cc(-c2ccccc2)c1C#N (stereo unspecified) was read as AmpC inh no det 37%.

Pulled by compound from above, two records:
Screening CCOc1ccc(C(C)C)cc1S(=O)(=O)n1nc(C)cc1C returned AmpC inh no det 36%.
COc1ccc(-n2cnnc2SCCC#N)cc1 was read as AmpC inh no det -7%.

Later entries
Screening COc1ccc(-c2nc3c(n2O)CCCC3=O)cc1OC returned AmpC inh no det -5%.
Screening CCc1c(C)nc(SCC(=O)c2ccc(C)c(C)c2)[nH]c1=O returned AmpC inh no det -11%.
Screening Nc1nc2nc(SCC(=O)N3CCCc4ccccc43)[nH]c2c(=O)[nH]1 returned AmpC inh no det -9%.
CN(CCc1ccccn1)S(=O)(=O)c1ccc(F)cc1 was read as AmpC inh no det -1%.
COC(=O)C1C2C=CC3(CN(Cc4cccs4)C(=O)C13)O2 (stereo unspecified) was read as AmpC inh no det 2%.
For CN1C(=O)CSc2ccc(NC(=O)Nc3ccccn3)cc21 the results were AmpC inh no det 0%.
`CCCCN(C(=O)NC(=O)Nc1nc2ccc(OC)cc2s1)S(C)(=O)=O` gave AmpC inh no det -9%.
Screening O=C1CC(Nc2ccccc2)C(=O)N1c1ccc(N2CCOCC2)cc1 (stereo unspecified) returned AmpC inh no det -5%.
`Cc1ccc(CCNC(=O)C2CCN(S(=O)(=O)c3cccc4nsnc34)CC2)cc1` gave AmpC inh no det 2%.
`Cc1cccc(NC(=O)c2ccccc2O)c1C` gave AmpC inh no det -7%.
For NC(=O)CSc1nnc(-c2ccc(S(=O)(=O)N3CCCC3)cc2)n1CC1CCCO1 (stereo unspecified) the results were AmpC inh no det 4%.
`CCN(CC)C(=O)Cn1nc(-c2ccccc2O)nc1SCC(=O)Nc1ccc(OC)cc1` gave AmpC inh no det 75%.
Screening O=C(c1n[nH]c(=O)c2ccccc12)N1CCOCC1 returned AmpC inh no det -6%.
For Cc1c2cc[n+](CCN3CCCCC3)cc2c(C)c2c1[nH]c1ccc(O)cc12 the results were AmpC inh no det 4%[5.75 µM].
COc1ccccc1CN1CCCC2(CCNCC2)C1 was read as AmpC inh no det -2%.
Screening Cc1ccccc1-n1nnc2c(=O)oc3ccccc3c21 returned AmpC inh no det -19%.
`CNC(=O)c1ccc(Oc2ccc(C(=O)NC)cc2)cc1` gave AmpC inh no det -16%.
For O=C(c1cc(-c2ccco2)nn1-c1cccc(Cl)c1)N1CCCCC1 the results were AmpC inh no det 32%.
For Cc1ccc(S(=O)(=O)N(CC(=O)NCc2ccco2)Cc2ccc(F)cc2)cc1 the results were AmpC inh no det 10%.
`c1ccc(-c2n[nH]c(-c3ccccn3)n2)nc1` gave AmpC inh no det -1%.
Screening c1ccc2c(-c3ccncc3)c[nH]c2c1 returned AmpC inh no det -8%.
`COc1cccc(-n2c(SCc3c(C)noc3C)nnc2-c2cccc(S(=O)(=O)N(C)C)c2)c1` gave AmpC inh no det 126%.
COc1ccc(-n2c(Cc3cccn3C)nnc2SCC(=O)Nc2cccc(Cl)c2)cc1 was read as AmpC inh no det 51%.
`O=C(NCCN1C(=O)C2C3C=CC(C3)C2C1=O)Nc1cccnc1` (stereo unspecified) gave AmpC inh no det 4µM*[single pt active].
For C#CCOc1ccc(Cl)cc1/C=N/O the results were AmpC inh no det -11%.
Screening CS(=O)(=O)c1ccc(C(=O)NC2CCOC2=O)cc1 (stereo unspecified) returned AmpC inh no det -4%.
Screening Cc1ccc(-n2c(Cc3cccn3C)nnc2SCC(=O)Nc2cc(C)on2)cc1 returned AmpC inh no det 28%.
COc1ccc(C(C)=O)cc1COC(=O)c1c(C)noc1C was read as AmpC inh no det 29%.
Screening C/C(N)=C(/C#N)C(=O)CSc1nnc(Nc2cccc(C)c2)s1 returned AmpC inh no det -14%.
For COc1ccccc1N(CC(=O)Nc1cc(C)on1)S(=O)(=O)c1cccs1 the results were AmpC inh no det -5%.
COC(=O)CN1C(=O)C(O)(CC(=O)c2ccc(C)cc2)c2ccccc21 (stereo unspecified) was read as AmpC inh no det 19%.
Screening Cc1nn(Cc2ccccc2Cl)c2sc(C(=O)OC3CCCC3=O)cc12 (stereo unspecified) returned AmpC inh no det 52%.
CCOC(=O)C1CCc2sc(N)c(C#N)c21 (stereo unspecified) was read as AmpC inh no det -3%.
Screening Cc1c(C(=O)NC2CCCc3ccccc32)oc2ccc(S(=O)(=O)N3CCOCC3)cc12 (stereo unspecified) returned AmpC inh no det 101%.
Screening O=C(Cn1nc(Cc2cccnc2)c2ccccc2c1=O)NCC1COc2ccccc2O1 (stereo unspecified) returned AmpC inh no det 73%.
Screening O=C(CCCCCN1C(=O)c2ccccc2C1=O)Nc1nccs1 returned AmpC inh no det -14%.
COc1ccccc1N1CCN(C(CNS(=O)(=O)c2ccccc2)c2cccnc2)CC1 (stereo unspecified) was read as AmpC inh no det 73%.
For CSCCC(NC(=O)C1CC1)c1nc2ccccc2[nH]1 (stereo unspecified) the results were AmpC inh no det -16%.
For CC(=O)CC1(C)OC(N)=C(C#N)C1(C#N)C#N (stereo unspecified) the results were AmpC inh no det 13%.
Screening COC(=O)CSc1nnc(-c2cccc(NC(=O)c3ccc(C)cc3)c2)n1C returned AmpC inh no det 45%.
`CCN1CCC[C@H]1CNC(=O)c1cc(S(N)(=O)=O)ccc1OC` gave AmpC inh no det 12%.
`N[C@@H]1[C@@H]2[C@@H]3C[C@H]4N(CC[C@@]14C(=O)C(=O)O)CC3=CCO[C@@H]2CC(=O)O` gave AmpC inh no det 4%[5.75 µM].
`COc1ccccc1C1CC(c2ccccc2)Nc2ncnn21` (stereo unspecified) gave AmpC inh no det 16%.
`O=C(C1CCCO1)N1CCC2(CC1)OCCO2` (stereo unspecified) gave AmpC inh no det 6%.
`O=C(NCc1ccco1)C1CCCN1C(=O)NCc1ccccc1` (stereo unspecified) gave AmpC inh no det -8%.
For CCn1cc(C(=O)O)c(=O)c2cc3c(cc21)OCO3 the results were AmpC inh no det -1%[12.8 µM].
Screening C=CCOc1cccc(C2C(C(=O)c3ccc(C)o3)=C(O)C(=O)N2Cc2ccncc2)c1 (stereo unspecified) returned AmpC inh no det -12%.
CCn1c(SCC(=O)Nc2ccc(N(C)C)cc2)nnc1-c1cccc(C)c1 was read as AmpC inh no det 40%.
Screening Cc1cccc(C)c1OCc1nnc(SCC(=O)Nc2nccs2)o1 returned AmpC inh no det -5%.
Screening CCn1cc(C(=O)O)c(=O)c2cnc(N3CCCC3)nc21 returned AmpC inh no det -6%[12.8 µM].
Screening CC(C)(C)OC(=O)NCCc1nnc(SCC(=O)Nc2cccc(Cl)c2)o1 returned AmpC inh no det 13%.
CC1(O)c2ccccc2C(=O)N1CCc1ccccc1F (stereo unspecified) was read as AmpC inh no det 7%.
`CCN(CCCNC(=O)CCCN1C(=O)COc2ccc(C)cc21)c1cccc(C)c1` gave AmpC inh no det 125%.
CN(C)S(=O)(=O)c1ccc(N2CCCC2)c(C(=O)Nc2ccccc2N2CCOCC2)c1 was read as AmpC inh no det 109%.
For Cn1c(C(=O)N2CCCC(C(=O)NCc3cccs3)C2)cc2sccc21 (stereo unspecified) the results were AmpC inh no det 41%.
`COc1ccc(-c2nnc(SCC(=O)c3cccs3)o2)c(OC)c1` gave AmpC inh no det 102%.
For COC(=O)c1oc2ccc(Cl)cc2c1NC(C)=O the results were AmpC inh no det 1%.
Screening CCOc1ccccc1NC(=O)Cn1nnc(C(=O)Nc2ccccc2Cl)c1N returned AmpC inh no det -13%.
Screening COc1ccc(-c2nc(C#N)c(NC(C)C)o2)cc1 returned AmpC inh no det 15%.
For CCCCCCn1c(SCC(=O)Nc2cc(C)on2)nc2ccccc2c1=O the results were AmpC inh no det inconclusive.

Copied from the entries so far for reference:
Screening CCOc1ccccc1NC(=O)Cn1nnc(C(=O)Nc2ccccc2Cl)c1N returned AmpC inh no det -13%.
Screening COc1ccc(-c2nc(C#N)c(NC(C)C)o2)cc1 returned AmpC inh no det 15%.
For CCCCCCn1c(SCC(=O)Nc2cc(C)on2)nc2ccccc2c1=O the results were AmpC inh no det inconclusive.

Later entries.
Screening O=C(c1nc(-c2ccccc2)n(-c2ccccc2)n1)N1CCN(S(=O)(=O)c2ccccc2)CC1 returned AmpC inh no det 100%.
Cc1[nH]c2ccccc2c1C(c1ccccn1)N1CCC(C(N)=O)CC1 (stereo unspecified) was read as AmpC inh no det 3%.
CCCCOc1nc2ccccc2nc1C(C#N)S(=O)(=O)c1ccccc1 (stereo unspecified) was read as AmpC inh no det -13%.
Screening Cc1ccc2occ(C(c3nnnn3Cc3ccccc3)N3CCOCC3)c(=O)c2c1 (stereo unspecified) returned AmpC inh no det 62%.
Screening N#Cc1c2c(c(NCc3ccco3)n3c1nc1ccccc13)CCC2 returned AmpC inh no det -11%.
`Cc1ccc(C(=O)COC(=O)CCc2nc3ccccc3[nH]c2=O)cc1C` gave AmpC inh no det 11%.
For Cc1cc2nc(C(F)(F)F)[nH]c(=O)n2n1 the results were AmpC inh no det -3%.
`O=C(O)c1cccc(Cn2cc(Cl)cn2)c1` gave AmpC inh no det -6%.
For CN1CCN(c2ncnc3ccc(-c4ccc5c(c4)OCO5)cc23)CC1 the results were AmpC inh no det 125%.
Screening c1cncc(-c2cc(-c3cc(-c4cccnc4)n[nH]3)[nH]n2)c1 returned AmpC inh no det -10%[5.75 µM].
`CCOc1ccc(NC(=O)CSc2nc3ccccc3c(=O)n2CCNC(C)=O)cc1` gave AmpC inh no det 9%.
`COc1ccc(-c2nn(CC(=O)N(C)C)c(=O)c3ccccc23)cc1` gave AmpC inh no det 26%.
`O=C(Nc1ccccc1C(=O)N1CCOCC1)C1CCCO1` (stereo unspecified) gave AmpC inh no det -9%.
For CCOC(=O)c1ccc(OCc2nc(-c3cccs3)no2)cc1 the results were AmpC inh no det -3%.
Screening Cn1c(=O)[nH]c(=O)c2c1nc(N1CCCCC1)n2CCOc1ccccc1 returned AmpC inh no det 22%.
Screening CCCc1cc(C(=O)N2CCN(S(=O)(=O)c3ccc(OC)c(OC)c3)CC2)cs1 returned AmpC inh no det 98%.

Source: PubChem (National Center for Advancing Translational Sciences (NCATS))

Not all compounds are listed (hit frequency here may not be typical).
